Menin-MLL FL inh – menin-MLL binding inhibition, fluorescein peptide. 290,000 tested, under 10 active. FP activity change, % at 61.4 µM. AID 1766. Fluorescence polarization, fluorescein-MLL peptide displacement from menin; inconclusive = falling polarisation curve, or a change in total fluorescence; inactive = total fluorescence flat and polarisation flat or rising; no compound was filed as active; the % refers to the polarisation; negative = inhibition;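 note: % of control where 0% means no effect; inhibitors lower the polarisation; unlabelled MLL peptide was the positive control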
CtBP-E1A inh – blocks the CtBP interaction with E1A | activity change, % (test concentration not listed) | 0.49% of 340,000 active | AlphaScreen GST-E1A/His-CtBP binding, 1536-well; active compounds read low; control for the full effect not named in the record; in the data active means activity change below about -65%; inconclusive means about -30% to -65%; inactive means above about -30%; note: % is set by controls: 0 for no effect and ±100 for the full control effect
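Steps: dispense buffer (Tris pH 8.0, NaCl 300 mM, TCEP 1 mM, BSA, Tween 20); add 5X protein mix (GST-E1A, His-CtBP, 125 nM each); pin 23 nL compound; 2 h at 37 °C, dark; add 5X beads (50 ug/mL); 1 h; read.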
Sfp PPTase inh – blocks B. subtilis Sfp PPTase activity; Q9F4F7; Biochemical Sfp PPTase activity, qHTS; Potency, µM, for inactives: max response, negative = inhibition, most hits filed as inhibitors; 3.5% of 310,000 active; AID 1490; active = well fitted inhibition curve with a large enough effect; inconclusive = small, poorly fitted or top-dose-only effect, or another doubt; inactive = no such curve, though single readings can be large or run the other way;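 note: the enzyme is Sfp with the accession as filed and its product quenches rhodamine fluorescence; potency is the fitted concentration of half-maximal effect; 0% = enzyme reaction without inhibitor and -100% = no enzyme wells; top concentration of the series not given in the record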
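Fluorescence-quenching assay with 15 nM Sfp, 5 uM rhodamine-CoA and 12.5 uM BHQ-2-labelled ybbR peptide in pH 7.6 Hepes/MgCl2 buffer. Enzyme was pre-incubated with compound for 15 min at room temperature. Rate was taken from the 30-min fluorescence change (525/598 nm).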
ClpP mod – qHTS Assay for Activators of ClpP | ATP-dependent Clp protease proteolytic subunit (Bacillus subtilis (strain 168)), P80244 | purified B. subtilis ClpP, FRET peptide cleavage, 20 min | AID 651965, 2013 | 1.9% of 340,000 active | Potency, µM (titrated, usually from 57.5 µM), without a hit: at the highest dose activity change, negative = active; active = well fitted falling curve with a large enough effect; inconclusive = small, poorly fitted or top-dose-only effect; inactive = no such curve, though single readings can be large or run the other way; note: potency is the fitted concentration of half-maximal effect; the source files actives as falling curves though it sought activators and does not explain the sign; nearly all actives have a fitted effect of over 65% in size; many hits overshoot -100%
Target sequence (P80244 whole entry, looked up): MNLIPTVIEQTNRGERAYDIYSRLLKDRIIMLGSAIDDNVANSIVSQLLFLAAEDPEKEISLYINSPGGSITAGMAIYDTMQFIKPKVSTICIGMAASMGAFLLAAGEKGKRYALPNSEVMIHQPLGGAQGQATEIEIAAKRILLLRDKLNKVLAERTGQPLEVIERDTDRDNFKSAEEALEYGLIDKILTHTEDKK
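ClpP 10 microg/mL final, pH 8 Tris/KCl buffer with BSA, glycerol, Tween-20; compound pinned in; FRET-FV substrate; RT 20 min; Ex320/Em430; ΔFRET vs ADEP 5.8 microM, DMSO, no enzyme.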
gsp antag – antagonizes gsp, the McCune-Albright syndrome mutation; gsp-mutant cells, cAMP HTRF, 30 min; control for the full effect not named in the record; Potency, µM (highest dose often 76.9 µM), inactives show at the top dose activity change, negative = inhibition, hits mostly inhibitors; 0.4% of 340,000 active; active = falling curve of any shape with a large fitted effect; inconclusive = falling curve, mostly with a smaller effect; inactive = flat or rising curve; cell line not stated here;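 note: intracellular cAMP measured with PDE inhibitor Ro 20-1724 present during compound exposure; potency is the fitted concentration of half-maximal effect; % is set by controls: 0 for no effect and ±100 for the full control effect; nearly all actives have a fitted effect of over 65% in size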
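Cells, 2000/well, grown 16–24 h in DMEM 10% FBS with 0.5 mg/ml G418, then compounds plus […] (300 uM addition stock), 30 min at 37C. cAMP read by HTRF (cAMP-d2 and anti-cAMP antibody-K in lysis buffer) after 30 min RT.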
gsp agonist – gsp mutant agonism | gsp mutant cells, cAMP HTRF, 30 min; control for the full effect not named in the record | Potency, µM (doses to about 76.9 µM), without a hit: at the highest dose activation (cAMP increase), most hits filed as activators | 0.13% of 340,000 active; active = well fitted activation curve with a large enough effect; inconclusive = small, poorly fitted or top-dose-only effect, or another doubt; inactive = no such curve, though single readings can be large or run the other way; cell line not stated here;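 note: phosphodiesterase inhibitor Ro 20-1724 added with compounds to block cAMP breakdown; potency is the fitted concentration of half-maximal effect; nearly all actives have a fitted effect of over 60% in size; about a fifth of the inactives were tested at one dose only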
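Cells in DMEM/10% FBS with G418 were pretreated with compounds in DMSO plus […] (300 uM stock) for 30 min at 37C. cAMP was measured by HTRF (cAMP-d2 plus anti-cAMP antibody-K) after 30 min at room temperature.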
TRPV1 PAM – enhances activation of the human vanilloid receptor TRPV1; TRPV1-expressing cells, Fluo-8 calcium influx, capsaicin EC20 potentiation; host cell line not named in the record; control for the full effect not named in the record; potentiation, % at 8.33 µM; 0.02% of 320,000 active; AID 540277; active means potentiation above 80%; inconclusive means 30% to 80%; inactive means below 30%; note: 0% is about no effect
Target sequence (Q8NER1 whole entry, looked up): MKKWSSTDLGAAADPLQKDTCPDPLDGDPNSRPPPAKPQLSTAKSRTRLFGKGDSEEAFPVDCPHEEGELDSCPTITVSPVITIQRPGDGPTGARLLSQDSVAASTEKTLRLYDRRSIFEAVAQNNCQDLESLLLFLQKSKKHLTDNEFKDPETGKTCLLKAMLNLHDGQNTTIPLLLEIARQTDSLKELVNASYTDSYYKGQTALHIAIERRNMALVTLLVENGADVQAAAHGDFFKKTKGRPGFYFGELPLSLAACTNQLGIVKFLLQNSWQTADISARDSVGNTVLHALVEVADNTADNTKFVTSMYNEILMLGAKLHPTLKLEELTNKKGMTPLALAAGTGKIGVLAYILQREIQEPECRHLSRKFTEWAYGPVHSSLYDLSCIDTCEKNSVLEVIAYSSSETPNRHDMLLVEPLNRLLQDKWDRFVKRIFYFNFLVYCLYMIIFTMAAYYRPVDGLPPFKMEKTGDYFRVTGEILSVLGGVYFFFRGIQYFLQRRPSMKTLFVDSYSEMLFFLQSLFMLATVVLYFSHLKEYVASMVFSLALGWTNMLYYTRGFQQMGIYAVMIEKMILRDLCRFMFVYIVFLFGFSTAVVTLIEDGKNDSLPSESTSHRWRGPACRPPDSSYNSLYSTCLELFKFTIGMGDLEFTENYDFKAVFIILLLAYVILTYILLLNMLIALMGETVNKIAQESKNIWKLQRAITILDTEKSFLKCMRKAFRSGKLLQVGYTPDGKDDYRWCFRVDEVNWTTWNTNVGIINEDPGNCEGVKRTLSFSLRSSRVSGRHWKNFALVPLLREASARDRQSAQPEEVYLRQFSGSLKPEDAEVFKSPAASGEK
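Cells expressing TRPV1 were dye-loaded with Fluo-8 and read kinetically: 10 s baseline, 3 min after compound (agonist portion), then 2 min after EC20 capsaicin (allosteric enhancer portion). Calcium-bound dye fluorescence at 480/520 nm.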
* hit, by the source's call; u = inconclusive; x = no result given; [ ] = dose if it differs, or a comment.

SMILES | Menin-MLL FL inh | CtBP-E1A inh | Sfp PPTase inh | ClpP mod | gsp antag | gsp agonist | TRPV1 PAM
CCc1cccc(OCC(=O)N(C)CC(=O)Nc2cccc(F)c2)c1 | x | -0.3 | x | -1.8% | 0.6% | -41.1%[inhibitor] | -12.3
COc1ccc(Cc2nc(C(=O)Nc3ccc(F)cc3)cs2)cc1 | 6.9 | 21.1 | -5.9% | -1.1% | u | 8.7% | -14.9
COc1ccc(-c2cc(C)no2)cc1S(=O)(=O)Nc1cccc(C)c1 | -1.9 | 1.0 | 4.5% | 0.2% | -8.0% | u | 0.5
Cc1nonc1OCCNCCNc1ccc([N+](=O)[O-])cc1Cl | 0.7 | -1.1 | 19.1% | x | -2.9% | -14.5% | -1.4
CCc1cccc(CC)c1N1C(=O)c2cc(N3CCOCC3)c([N+](=O)[O-])cc2C1=O | 6.1 | -15.7 | -21.1% | -0.2% | 9.2% | -0.7% | -17.1
CC(C)(C)OC(=O)C[C@@H]1C/C=C\C[C@H](CC(=O)N(CCO)Cc2ccccc2)C(=O)NC[C@@H](c2ccccc2)OC1=O | x | -12.0 | x | -1.9% | -8.9% | x | x
CCOC(=O)C1(C(=O)OCC)C(C)CC(=O)N1c1ccccc1OC (stereo not given) | x | 1.4 | x | -1.6% | x | 6.4% | x
O=C(O)c1ccc(N2CCN(c3ccc(Cl)cc3)CC2)c([N+](=O)[O-])c1 | 0.5 | -7.3 | 1.7% | x | -16.4% | -50.1%[inhibitor] | 27.5
COc1ccc(C2C3CCCCC3(O)CCN2C(=O)c2cccs2)cc1 (stereo not given) | 3.3 | -1.5 | 12.9% | -2.2% | 3.9% | u | -5.6
COc1ccccc1CNS(=O)(=O)CCNC1CCCCC1 | x | 3.0 | x | 1.9% | 9.9% | x | x
Cc1ccc2[nH]c3c(c2c1)CNCC3 | 0.7 | -6.1 | 6.3% | x | 9.3% | -31.6%[inhibitor] | 13.7
Cc1cc(OCC(=O)Nc2ccncc2)cc(C)c1Br | -3.2 | 4.0 | -3.5% | -0.4% | u | 20.5% | -9.1
C#CCNc1ccc(C(=O)OCC)cc1 | 3.4 | x | 14.5% | -4.4% | 15.0% | 5.0% | 7.2
COc1ccc(S(=O)(=O)N/N=C(/C)c2ccc(C)o2)cc1 | x | 5.7 | x | x | -8.9% | -2.6%[15.4 µM] | x
Cc1ccccc1Nc1nc(N)nc(CN(C)Cc2ccccc2Cl)n1 | 4.3 | -16.4 | 16.1% | x | 3.9% | 13.7%[15.4 µM] | -9.7
CC1C/C(=C/c2cccs2)C(=O)/C(=C/c2cccs2)C1 (stereo not given) | 4.9 | 7.0 | -4.9% | 0.6% | 7.4% | 21.6% | 2.1
CCOC(=O)c1sc(=S)n(C)c1NC(=O)c1ccc(OC)cc1 | 2.0 | -3.4 | 12.6µM* | -1.9% | -8.1% | -19.4%[15.4 µM] | 2.2
O=C(CSc1n[nH]c(-c2ccncc2)n1)c1cccc([N+](=O)[O-])c1 | 1.7 | -13.0 | u | x | -13.7% | 5.8% | -5.8
O=C(NCCc1ccc(Cl)cc1)C1CCCN1C(=O)NCc1ccccc1 (stereo not given) | -3.4 | x | -3.0% | -0.6% | -3.9% | 0.4% | -28.2
COc1ccc(C(CNC(=O)C2CC(=O)N(Cc3ccccc3)C2)N2CCOCC2)cc1 (stereo not given) | x | x | x | -3.5% | 8.6% | u | 7.4
Cc1cnc(NC(=O)CSc2ccc(Cl)cc2)s1 | 1.8 | 1.6 | 12.5% | 1.2% | -9.5% | -8.6% | 9.4
O=C(NCCNCc1ccccn1)c1ccco1 | -1.1 | u | 13.8% | x | 7.2% | -7.6%[15.4 µM] | -2.8
Cc1nn(CC(=O)N2CCCCCC2)c(=O)c2cc3occc3n12 | x | 4.2 | 15.5% | -3.1% | -1.9% | 23.9% | -7.4
CC(C)(C)NC(=O)CSc1nncn1-c1ccccc1 | 1.0 | 5.4 | 18.0% | 0.4% | -1.3% | 0.7% | -6.3
O=C(Nc1cccc(S(=O)(=O)Nc2ccc(Cl)cc2)c1)c1ccc[n+]([O-])c1 | 8.0 | 1.9 | -11.5% | -0.3% | 2.0% | 10.9% | 2.5
Cc1c(C(=O)N(C)Cc2ccc(OC(F)F)cc2)oc2ccccc12 | x | 21.9 | -1.3% | x | -10.4% | 1.0%[15.4 µM] | -3.5
CCOC(=O)c1[nH]cnc1C(=O)Nc1ccccc1 | -1.4 | 25.0 | 10.2% | x | x | 3.0%[15.4 µM] | -50.7
CCCCN(C(=O)CC1CCCCC1)c1c(N)n(CCCC)c(=O)[nH]c1=O | x | 1.6 | x | -2.6% | x | -52.2%[inhibitor] | x
CCC(C)[C@H](NC(=O)NCCC1=CCCCC1)C(=O)O (stereo not given in full) | 4.6 | -1.7 | 16.7% | -2.8% | 10.8% | -25.4% | 10.5
Cc1ccc(C)c(NC(=O)CSc2nnc(-c3cc(C)[nH]n3)n2N)c1 | x | -5.9 | 6.2% | -2.5% | 8.9% | 28.2% | 11.0
CCNC(=O)NC(=O)C(C)OC(=O)c1ccc(SC)cc1OC (stereo not given) | -1.3 | x | -0.2% | 0.5% | 5.8% | 3.0% | -7.4
CC(=O)N1CCN(c2ccccc2NC(=O)COc2ccc(Br)cc2)CC1 | 1.4 | 3.2 | 0.3% | 1.5% | -6.1% | -100.2%[inhibitor] | -8.0
CC(=O)c1cnc(N(C)C)s1 | -3.9 | 2.8 | -14.2% | -12.7% | 5.9% | -23.3% | 0.4
Cc1cc(N)n2nc(C)c(-c3ccc(Cl)cc3)c2n1 | 0.7 | 5.8 | -25.2% | x | x | 3.4%[15.4 µM] | -0.5
COC(=O)c1coc(-c2ccc(OC)cc2)c1C(=O)OC | -2.0 | 5.9 | -10.9% | 31.6µM* | -1.5% | 5.5% | -6.7
Oc1cccc(/C=N/c2c(-c3ccco3)nc3ccccn23)c1 | u | -16.7 | u | 28.2µM* | -5.8% | u | 8.0
CC1(C)C2CCC13CS(=O)(=O)N[C@@H]3C2 (stereo not given in full) | 5.8 | 1.5 | -15.6% | 0.3% | -1.1% | -15.4% | 3.2
CN1CCC(N(C)C(=S)NC(=O)C23CC4CC(CC(C4)C2)C3)CC1 | 1.3 | -10.0 | -10.9% | x | -7.6% | -16.5%[15.4 µM] | -9.4
CC(=O)c1cccc(NC(=O)c2noc3c2CCc2ccccc2-3)c1 | 4.7 | x | -11.8% | -0.9% | 10.1% | 2.4% | -12.1
O=C(NC1CCOC1)c1ccc(OC2CCN(CCc3ccccc3)CC2)cc1 (stereo not given) | 2.7 | 3.6 | -5.8% | x | 9.2% | 2.3% | -1.0
c1ccc(Cn2nnc3c(NCCN4CCOCC4)ncnc32)cc1 | -2.5 | 9.3 | 10.7% | 0.2% | 4.6% | 7.5% | 0.3
C=C(C)Cn1cnc2cc(C)c(C)cc21 | 0.1 | -4.4 | 20.8% | -1.1% | 1.0% | -50.2%[inhibitor] | -4.7
COc1ccc(CCNC(=O)c2ccccc2Cl)cc1OC | -3.9 | 11.7 | -6.3% | 0.7% | 16.3% | -26.3% | 2.4
COc1ccc(N2CCN(CCN3C(=O)c4ccccc4C3=O)CC2)cc1 | x | -4.2 | 16.8% | x | -15.9% | 16.5%[15.4 µM] | -1.3
O=C(COc1ccc([N+](=O)[O-])cc1)NCCc1nc2ccccc2[nH]1 | 4.0 | -1.2 | 26.7% | x | -0.2% | -4.4% | -0.8
COc1cccc(CNC(=O)COC(=O)c2ccc(-c3ccc(O)cc3)cc2)c1 | x | -4.7 | x | 3.7% | x | 3.5% | x
Cc1nc(SCc2ccc(F)cc2)n[nH]1 | -0.3 | 0.2 | 5.9% | -2.9% | 4.0% | 11.6%[15.4 µM] | -15.7
C/C(=N\NC(=O)CN1CCN(Cc2ccc(C)cc2)CC1)c1ccncc1 | 4.9 | 1.6 | 12.6% | -1.2% | 6.0% | -41.1%[inhibitor] | -3.5
COc1ccc(C2/C(=C(/O)c3ccc(S(=O)(=O)N4CCOCC4)cc3)C(=O)C(=O)N2CCN2CCOCC2)cc1 (stereo not given) | x | 5.3 | 9.0% | x | 1.8% | 2.7% | 7.5
CCCCc1n[nH]c2c1/C(=N/OCC)CC(C)(C)C2 | -0.3 | 1.9 | -16.3% | x | 1.1% | -11.7%[15.4 µM] | 3.5
CC(C)(C)NCC(O)COc1cccc2[nH]c(=O)[nH]c12 (stereo not given) | 1.7 | 2.7 | 6.1% | 0.4% | 6.2% | x | x
O=C(O)CCCNC(=O)CCn1nnc2ccccc2c1=O | 2.5 | x | 12.8% | -0.5% | 11.4% | 23.1% | 3.4
O=C(CSc1nc2ccccc2c(=O)[nH]1)Nc1ccc(N2CCOCC2)c(Cl)c1 | 1.0 | 0.0 | -0.9% | x | -16.4% | 8.1%[15.4 µM] | u
CCC(=O)Nc1cccc(-n2nnnc2SCC(=O)N(C(C)C)C(C)C)c1 | 7.6 | 0.5 | 0.4% | 0.0% | 3.4% | -3.5%[15.4 µM] | 9.4
O=S(=O)(c1cccc2cccnc12)N(CCO)CCO | 0.7 | 4.5 | -10.2% | 0.8% | 3.4% | 4.9% | 0.8
Cc1ccc(S(=O)(=O)N2CCCC(C(=O)NC3=NCCS3)C2)cc1 (stereo not given) | 6.3 | -3.7 | 24.4% | -1.3% | 2.0% | -39.3%[inhibitor] | -11.1
O=C(NCc1ccc(Cl)cc1)C1CCCN(c2cnccn2)C1 (stereo not given) | x | 1.5 | 0.2% | x | 9.0% | u | -14.3
C/C=C\C=C/C(=O)Nc1cccc(C2=NOC3(C2)C[C@@H](C(N)=O)N(C(=O)C2(C)CC2)C3)c1 (stereo not given in full) | 2.5 | -3.1 | 20µM* | -1.5% | 9.6% | x | u
COc1ccc(Nc2nc(N)nc(CSc3nccc(C)n3)n2)cc1 | 6.4 | -14.1 | 14.7% | 0.3% | 11.1% | 7.0% | 6.9
C[C@H](CO)N1C[C@H](C)[C@H](CN(C)S(=O)(=O)c2cn(C)cn2)Oc2ccc(NC(=O)Nc3ccc(C(F)(F)F)cc3)cc2CC1=O | x | -8.7 | x | 0.7% | 0.1% | x | x

Screening data as filed in PubChem.
